VDR inhibitor – vitamin D3 receptor (human) inhibition; VDR-SRC2-3 peptide fluorescence polarization, 2 h; Potency, µM, for the others: max response, negative = inhibition, actives largely listed as inhibitors; 0.93% of 400,000 active; P11473; AID 504847; active means well fitted inhibition curve with a large enough effect; inconclusive means small, poorly fitted or top-dose-only effect, or another doubt; inactive means no such curve, though single readings can be large or run the other way; further: series mostly up to about 120 µM
Target sequence (P11473 whole entry, looked up): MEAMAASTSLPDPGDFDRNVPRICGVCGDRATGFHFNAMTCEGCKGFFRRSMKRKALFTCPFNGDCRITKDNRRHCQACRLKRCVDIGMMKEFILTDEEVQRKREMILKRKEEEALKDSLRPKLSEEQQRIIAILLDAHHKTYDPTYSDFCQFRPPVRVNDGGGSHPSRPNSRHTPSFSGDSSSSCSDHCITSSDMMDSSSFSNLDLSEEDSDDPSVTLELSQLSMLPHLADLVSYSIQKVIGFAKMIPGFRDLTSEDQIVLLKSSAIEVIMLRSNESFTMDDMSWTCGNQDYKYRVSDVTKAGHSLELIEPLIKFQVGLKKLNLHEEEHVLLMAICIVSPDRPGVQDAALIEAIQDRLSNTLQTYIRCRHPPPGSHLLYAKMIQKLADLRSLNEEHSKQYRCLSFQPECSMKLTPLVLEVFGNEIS
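The screen uses fluorescence polarization to detect compounds that interfere with recruitment of the SRC2-3 coactivator peptide to VDR; plates are read after 2 h at room temperature.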
* hit, by the source's call; ? = inconclusive; & = joins results of further samples. On the % scale 0 is the no-effect control and ±100 the full control effect; potency means the concentration at half of the fitted maximal effect. Only part of the results is shown; rates above refer to the full screens.

No.	structure	VDR inhibitor
1	COc1cc(/C=C/CO)cc(OC)c1OC/C=C(\C)CCC=C(C)C	-17%
2	Cc1c(NC(=O)c2cccs2)cccc1[N+](=O)[O-]	-21%
3	CO/N=C(\C(=O)N[C@@H]1C(=O)N2C(C(=O)[O-])=C(C[n+]3cccc4c3CCC4)CS[C@H]12)c1csc(N)n1	28µM*
4	COc1ccccc1NC(=O)CN1C(=O)COc2ccc(C)cc21	-15%
5	COc1ccc(-c2cc(-c3ccc(C)cc3)nc3c2COc2ccccc2-3)cc1	-6%
6	Cc1nnc(SCC(=O)Nc2ccccc2)[nH]c1=O	4%
7	O=C(Nc1cccc(C(=O)N2CCCC2)c1)C1CCCCC1	-1%
8	O=C(Nc1ccc2c(c1)CCC2)Nc1ccc2c(c1)OCO2	-16%
9	O=C(Cc1cccs1)NC1CC(=O)N(c2ccccc2)C1 (stereo unspecified)	14%
10	O=C(CN(Cc1ccccc1)C(=O)c1csnn1)NCc1ccccc1	-1%
11	Cc1ccc(S(=O)(=O)N[C@H](C(=O)NC2CCC(C)CC2)C(C)C)cc1 (stereo partly specified)	4%
12	O=C(N(c1ccccc1)c1ccccc1)N(c1ccccc1)c1ccccc1	-11%
13	CC(C)(C)OC(=O)N1CCCC(C(=O)CC#N)C1 (stereo unspecified)	-9%
14	COc1ccccc1N(Cc1ccccc1)S(=O)(=O)c1cccc(C(=O)NC2CC(C)(C)NC(C)(C)C2)c1	3%
15	Cc1cc(C)c(S(=O)(=O)Nc2ccc(Cl)cn2)c(C)c1	-4%
16	O=C(CN1CCCC1)Nc1ccc(Br)cc1[N+](=O)[O-]	0%
17	O=C(NNC1=NS(=O)(=O)c2ccccc21)c1ccc(Cl)cc1	-17%
18	O=C(Nc1ncc(Cc2cccc(C(F)(F)F)c2)s1)C1CCCO1 (stereo unspecified)	-8%
19	COc1cccc(NC(=O)C(=O)NCCc2sc(-c3cccc(C)c3)nc2C)c1	5%
20	O=C(CCC(=O)OCCCC(F)(F)C(F)(F)F)Nc1ccc(Cl)cc1Cl	18%
21	COc1ccccc1Nc1nc(-c2cccnc2)cs1	-6%
22	Cc1cccc(-c2nc3ccccc3c(=O)[nH]2)c1	13%
23	CCC(C)(C)n1nnnc1C(c1ccccn1)N1CCOCC1 (stereo unspecified)	19%
24	CC(C)CC(CO)N1CCN(C(=O)c2ccc(C(C)(C)C)cc2)CCC1=O (stereo unspecified)	-25%

The closing four entries of the part before come first, to join the parts.
No.	structure	VDR inhibitor
21	COc1ccccc1Nc1nc(-c2cccnc2)cs1	-6%
22	Cc1cccc(-c2nc3ccccc3c(=O)[nH]2)c1	13%
23	CCC(C)(C)n1nnnc1C(c1ccccn1)N1CCOCC1 (stereo unspecified)	19%
24	CC(C)CC(CO)N1CCN(C(=O)c2ccc(C(C)(C)C)cc2)CCC1=O (stereo unspecified)	-25%
25	CCC1=NN2C(=N)/C(=C\c3cccn3-c3ccc(Cl)cc3)C(=O)N=C2S1	-2%
26	CCN(CC)P(=O)(c1ccccc1)c1c(C)nc2ccccn12 (stereo unspecified)	-3%
27	Brc1csc(/C=N/Nc2nc3ccccc3s2)c1	-21%
28	COc1ccc(-c2noc(-c3cc(-c4ccc(F)cc4)n[nH]3)n2)cc1	18%
29	O=C(CSc1nncn1-c1cccnc1)Nc1ccccc1[N+](=O)[O-]	10%
30	CCCCCC1=CCC/C1=N\NC(=O)c1ccc2c(c1)OCO2	6%
31	Cc1ccc2nc(-c3ccc(O)cc3)c(Nc3ccc(Cl)cc3)n2c1	-7%
32	COc1ccc(N(C(=O)c2ccco2)C(C(=O)NC2CCCC2)c2ccc(C)cc2)c(OC)c1 (stereo unspecified)	-5%
33	COc1ccccc1CNCC(O)(c1ccc(Cl)cc1)c1ccc(Cl)cc1	17%
34	CSc1ccccc1C(=O)C1CCCN(Cc2cnn(-c3ccccc3)c2)C1 (stereo unspecified)	-13%
35	Cc1ccc(CNC(=O)CN2C(=O)COc3ccc(C)cc32)cc1	-16%
36	O=C(c1ccc(-c2ccccc2Cl)s1)N1CCOCC1	-7%
37	COc1cc2nc(CN3CCN(S(=O)(=O)c4ccccc4)CC3)[nH]c(=O)c2cc1OC	-2%
38	COc1ccc(CNC(=O)c2cc3sccc3n2Cc2ccc(F)cc2)cc1	-7%
39	CCn1c(NC(=O)c2cccc(Cn3cc(Cl)cn3)c2)nc2ccccc21	-2%
40	Cn1c(C(=O)N2CCCC(C(=O)NCCCSC3CCCCC3)C2)cc2sccc21 (stereo unspecified)	-4%
41	Cc1cc2c(=O)n(CC(=O)N3CCN(c4ccc(F)cc4)CC3)cnc2s1	-1%
42	COc1ccc(S(=O)(=O)Cc2ccc(C(=O)N3CCN(c4ccccn4)CC3)o2)cc1	-21%
43	COc1ccc(C(=O)c2ccc(Br)cc2)c2ccccc12	-18%
44	O=C(CSc1nccn1Cc1ccccc1)Nc1ccccc1	-6%
45	CC1=NCCN1S(=O)(=O)c1cc([N+](=O)[O-])ccc1Cl	3%
46	Cc1ccccc1OCC(=O)OCC(=O)Nc1cc(S(=O)(=O)N2CCCCC2)ccc1Cl	-6%
47	COCCNC(=O)CCCn1c(SCc2ccccc2Cl)nc2c(sc3ccccc32)c1=O	4%
48	COc1ccc(N=Nc2c(-c3ccc(OC)cc3)[nH]oc2=O)cc1	-12%
49	COc1ccc(CNC(=O)CSc2cccc3cccnc23)cc1	6%
50	Cc1ccc(NC(=O)C(=O)NCC(c2ccc3c(c2)OCO3)N2CCN(C)CC2)c(C)c1 (stereo unspecified)	-4%
51	COc1ccc(CCN(C)C(=O)c2ccc(S(=O)(=O)Nc3ccccc3C)cc2)cc1OC	-6%
52	O=C(OCc1csc(-c2ccccc2)n1)c1ccccc1O	-19%
53	Fc1ccccc1COc1ccc2ccccc2c1CNc1nn[nH]n1	20%
54	COc1ccc2c(c1)nc(SCC(=O)C(C)(C)C)n2C	?
55	Cc1cccc(NC(=O)CSc2nc3nc(C)cc(C)c3c(=O)[nH]2)c1	8%
56	CCNC(=O)c1c2c(nc3ccccc13)C(=O)N(C1CCCCC1)C2	6%
57	O=C(NC1CCCCC1)C1CCC(CNS(=O)(=O)c2cccc3nsnc23)CC1 (stereo unspecified)	1%
58	COC(=O)COn1c(SCC(=O)OC)nc2ccccc2c1=O	-21%
59	COc1cc(CNCc2ccccn2)ccc1OCc1c(Cl)cccc1Cl	14%
60	CCNc1nc(NCC)n2c(SCC(=O)Nc3c(C)cccc3C)nnc2n1	13%
61	Cn1nc(C(=O)OCC(=O)Nc2ccc(F)cc2Cl)c2ccccc2c1=O	-2%
62	O=C(CCn1cnc2ccccc2c1=O)NCc1ccccc1	-9%
63	COc1ccccc1C1Nc2c(sc3nc(C)cc(C)c23)C(=O)N1c1ccccc1 (stereo unspecified)	6%
64	O=C(O)/C(=C\c1ccc(Br)cc1)c1ccc(S(=O)(=O)N2CCCCC2)s1	-11%
65	Cc1nn(C)c(C)c1S(=O)(=O)Nc1ccc2c(c1)OCO2	-15%
66	COC(=O)Cc1cc(=O)oc2c(C)c(O)ccc12	24%
67	COc1ccc(-c2cc(C(=O)NC(Cc3c[nH]c4ccccc34)C(=O)O)c(C)o2)cc1OC (stereo unspecified)	45µM*
68	O=C(CN1CCN(C2CCCCC2)CC1)Nc1cccc2ccccc12	-6%
69	CSc1nc2nc3c(cc2c(=O)n1-c1ccccc1C)CCCC3	21%
70	CCCn1c(SCC(=O)NC(=O)NCc2ccccc2)n[nH]c1=O	-6%
71	C=CCN1C(=O)/C(=C2/Sc3ccccc3N2CC)SC1=S	-7%
72	Nc1nc(SCC(=O)Nc2ccc(Br)cc2F)n[nH]1	-2%
73	c1ccc(CCNc2ccc3c(c2)Cc2ccccc2-3)nc1	-5%
74	COc1cccc(NC(=O)CN2C(=O)c3cccnc3Oc3ccc(Cl)cc32)c1	5%&2%
75	CN1C2CCC1CC(NC(=O)c1ccc(Cl)cc1)C2 (stereo unspecified)	0%
76	C=CCNC(=O)C1CCC(CNc2nc(=S)[nH]c3ccccc23)CC1 (stereo unspecified)	-23%
77	O=C(CSc1ccc2nnc(CCNC(=O)c3ccccc3)n2n1)Nc1ccc(F)cc1F	-10%
78	O=C(N/N=C/c1cccc(NC(=O)c2ccc(Cl)cc2)c1)c1cccc(O)c1	13%
79	Cc1ccccc1OCC(=O)OCC(=O)NCc1ccccc1Cl	-5%
80	CC(C)OC(=O)[C@@H]1CC[C@H](C)[C@@H](CCC[C@@H]2C[C@@H](O)C[C@H](CC#N)O2)O1	3%

The final four compounds of the part before are carried over, then new ones follow:
No.	structure	VDR inhibitor
77	O=C(CSc1ccc2nnc(CCNC(=O)c3ccccc3)n2n1)Nc1ccc(F)cc1F	-10%
78	O=C(N/N=C/c1cccc(NC(=O)c2ccc(Cl)cc2)c1)c1cccc(O)c1	13%
79	Cc1ccccc1OCC(=O)OCC(=O)NCc1ccccc1Cl	-5%
80	CC(C)OC(=O)[C@@H]1CC[C@H](C)[C@@H](CCC[C@@H]2C[C@@H](O)C[C@H](CC#N)O2)O1	3%
81	O=c1[nH]n(Cc2ccccc2)c(=O)c2ccccc12	12%
82	COc1ccccc1N(C)S(=O)(=O)c1ccc(Cl)c(C(=O)NCc2ccco2)c1	-15%
83	O=C(NCc1ccc2c(c1)OCO2)c1cc(-n2cnnc2)ccc1Cl	10%
84	COc1ccc(N(CC(=O)O)S(=O)(=O)c2ccc(C)cc2)cc1Cl	-9%
85	CCCCN1CCN=C1Nc1ccccc1	-9%
86	Cc1cc2ccccc2n1CCNC(=O)C1CCCCC1	-17%
87	COC(=O)C(C(C)C)N1CCc2c(C)nc3c(C#N)cnn3c21 (stereo unspecified)	16%
88	CCOC(=O)Cc1nnc(NC(=O)Nc2ccccc2)s1	15%

Molecules from the list above with a tert-butyl group, in the order listed:
No.	structure	VDR inhibitor
13	CC(C)(C)OC(=O)N1CCCC(C(=O)CC#N)C1 (stereo unspecified)	-9%
24	CC(C)CC(CO)N1CCN(C(=O)c2ccc(C(C)(C)C)cc2)CCC1=O (stereo unspecified)	-25%
54	COc1ccc2c(c1)nc(SCC(=O)C(C)(C)C)n2C	?

Next part.
No.	structure	VDR inhibitor
89	COC(=O)C(O)(CC(=O)Nc1ccc(OC)cc1)C(F)(F)F (stereo unspecified)	8%
90	Cc1cc(C(=O)NC2CCCCC2)c(C)o1	-4%
91	CCOC(=O)N1CCN(S(=O)(=O)c2ccc(C(=O)N(CCCN(C)C)c3nc4c(F)cc(F)cc4s3)cc2)CC1	-3%
92	O=C(Nc1ccc(C(F)(F)F)cc1[N+](=O)[O-])O[C@H]1[C@H](Cc2ccccc2)NS(=O)(=O)[C@H]2C[C@@H]3C=C[C@]12O3	2%
93	Cc1ccc(-c2ccc3nnc(SCC(N)=O)n3n2)cc1	0%
94	CCc1nnc2c(NCc3ccccc3OC)nc3ccccc3n12	3%
95	Cc1cc(C)c(C2=NOC3C4CCC(C4)C23)c(C)c1 (stereo unspecified)	-9%
96	CCc1ccc(-c2nc(SCC(=O)NCC3CCCO3)c(-c3ccc(F)cc3)[nH]2)cc1 (stereo unspecified)	-5%
97	CCOC(=O)C1C2C=CC3(CN(C4CCCC4)C(=O)C13)O2 (stereo unspecified)	-15%
98	CC1(C)CC[C@]2(C(=O)O)CC[C@]3(C)C(=CCC4[C@@]5(C)CC[C@H](O)C(C)(C)C5CC[C@]43C)C2C1 (stereo partly specified)	13%
99	CCOc1ccc(NC(=O)c2cn(C3CCCCC3)c(=O)c3c2c2ccccc2n3C)cc1	5%
100	CC(C)N(C(=O)[C@H]1C[C@H](CC(=O)NCCC2=CCCCC2)C(=O)N2CCc3c([nH]c4cc(-c5ccco5)ccc34)[C@]12C)C(C)C	-14%
101	CC1=C(C(=O)OC(C)C)C(c2ccc(Cl)cc2)n2c(s/c(=C\c3ccc(OCC(=O)O)cc3)c2=O)=N1 (stereo unspecified)	?
102	C=CCN(CC=C)CCOc1ccc(C)cc1[N+](=O)[O-]	-18%
103	CCc1ccc(N2CC(C(=O)N/N=C/c3ccccc3)CC2=O)cc1 (stereo unspecified)	?
104	O=C(CSc1ccc2nnc(CCNC(=O)c3ccccc3)n2n1)NCCc1ccccc1	-12%
105	O=C(NC1CCCC1)c1ccc(CN2CCOCC2)cc1	-4%
106	C=CCn1c(Sc2ncc([N+](=O)[O-])s2)n[nH]c1=O	28µM*
107	CC(C)CC(=O)NC(Nc1ccccc1F)C(Cl)(Cl)Cl (stereo unspecified)	5%
108	CC(C)(C)NS(=O)(=O)c1ccc(NC(=O)C2CCCCC2)cc1	-2%
109	CCOC(=O)c1ccc(NC(=O)COc2ccccc2CNC2CCCC2)cc1	-3%
110	Cc1nn(-c2nc3ccccc3s2)c(C)c1Oc1ccccc1O	7%
111	O=C(CCCCCn1c(SCc2ccncc2)nc2ccccc2c1=O)NCc1ccco1	-7%
112	Cn1c2ccccc2c(=O)c2ccc(C#Cc3ccc(N)cc3)cc21	22%
113	O=C(CCCN1C(=O)c2ccccc2C1=O)Nc1sc2c(c1C(=O)NCc1ccco1)CCC2	-11%
114	CCC(CC)=NNc1cccc([N+](=O)[O-])c1	-9%
115	O=C(NCc1ccncc1)c1ccc(NS(=O)(=O)c2ccccc2)cc1	-4%
116	CCC(C)(C)C(=O)Nc1cc([N+](=O)[O-])ccc1Cl	-10%
117	Cc1ccc(O)c(NC(=O)c2cc(-c3ccccc3Cl)on2)c1	-1%
118	COc1ccc2cc(C(=O)Nc3ccc(O)cc3)sc(=O)c2c1OC	-1%
119	N#Cc1nc(-c2ccc(F)cc2)oc1N1CCCCC1	-8%
120	COc1ccccc1CNC(=O)/C=C/c1ccc(S(=O)(=O)NCc2ccco2)cc1	-12%
121	O=C(NCc1ccccn1)c1cccn1-c1ncc(C(F)(F)F)cc1Cl	-11%
122	S=C(NCc1cccc(Cl)c1)NC1CCCCC1	-19%
123	COc1cc2c(cc1OC)C(COc1ccc3c(C)cc(=O)oc3c1)N(C(=O)Cc1ccc(F)cc1)CC2 (stereo unspecified)	15%

Assay outcomes as filed in PubChem.
